Cruzain noTriton: cruzain (T. cruzi) inhibition without detergent; P25779; purified cruzain, Z-FR-AMC fluorescence, no detergent; Potency, µM, for inactives: max response, negative = inhibition, most hits filed as inhibitors; 200,000 tested, 2.3% active; active means well fitted curve in the direction sought with a large enough effect; inconclusive means small, poorly fitted or top-dose-only effect, or another doubt; inactive means no such curve, though single readings can be large; an effect the other way counts as inactive or inconclusive;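 further: plate controls were enzyme without inhibitor for no effect and buffer without enzyme for full effect; nearly all actives have a fitted effect of over 40% in size; top concentration of the series not given in the record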
Target sequence (P25779 123-467 limits assumed): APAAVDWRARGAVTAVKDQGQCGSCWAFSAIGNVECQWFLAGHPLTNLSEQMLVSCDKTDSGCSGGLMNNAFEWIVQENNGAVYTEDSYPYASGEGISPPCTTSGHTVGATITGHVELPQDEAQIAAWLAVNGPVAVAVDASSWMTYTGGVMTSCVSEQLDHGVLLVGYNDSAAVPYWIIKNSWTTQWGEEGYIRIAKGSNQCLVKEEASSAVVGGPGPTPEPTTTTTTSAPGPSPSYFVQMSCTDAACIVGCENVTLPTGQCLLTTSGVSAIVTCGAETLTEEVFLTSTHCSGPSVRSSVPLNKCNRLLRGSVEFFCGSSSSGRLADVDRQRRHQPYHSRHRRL
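Detergent-free condition (0.00005% Triton X-100) in acetate buffer pH 5.5 with DTT. 1.5 nM enzyme and compound were pre-mixed 15 min, then 2 uM Z-FR-AMC substrate added; reaction progress from fluorescence change between first and third reads (60 s).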
LASV entry inh: Lassa virus entry inhibition; AID 540256; Potency, µM (top dose mostly 37.9 µM), for the others: top-dose activity change, negative = inhibition, hits mostly inhibitors; Lassa virus pseudotype entry inhibition, cell reporter; control for the full effect not named in the record; 300,000 tested, 1.2% active; active means well fitted inhibition curve with a large enough effect; inconclusive means small, poorly fitted or top-dose-only effect, or effect the other way; inactive means flat fitted curve, though single readings scatter; tested in HEK293 cells; further: on the % scale 0 is the no-effect control and ±100 the full control effect; nearly all actives have a fitted effect of over 50% in size; luciferase read-out
RE007 growth inh: less growth of the S. pombe RE007 Vpr strain | 360,000 tested, 0.21% active | Potency, µM (series often up to 92.2 µM), for inactives: top-dose activity change, negative = less growth | S. pombe RE007 Vpr strain, BacTiter-Glo ATP luminescence, 24 h; control for the full effect not named in the record; active = well fitted falling curve with a large enough effect; inconclusive = small, poorly fitted or top-dose-only effect; inactive = no such curve, though single readings can be large or run the other way;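 further: on the % scale 0 is the no-effect control and ±100 the full control effect; nearly all actives have a fitted effect of over 50% in size; the assay follows cell death caused by Vpr and the record does not say whether a fall means rescue or toxicity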
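Fission yeast RE007 carrying one integrated HIV-1 vpr copy, seeded at OD 0.01 in PMG+AL medium with 23 nL pinned compound. Grown 24 h at 30 degrees; viability read by BacTiter-Glo luminescence after 5 min.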
SARS PLP yeast: inhibitors of SARS-CoV papain-like protease in yeast | S. cerevisiae expressing SARS-CoV PLpro, growth rescue; control for the full effect not named in the record | Potency, µM (titrated, usually from 32.9 µM), for the others: at the highest dose activity, positive = growth rescue | 330,000 tested, 0.19% active; further: 0% is about no effect; nearly all actives have a fitted effect of over 55% in size; growth read by luminescence after 48 h
StopGo reporter: FMDV 2A StopGo reporter, luciferase signal | Potency, µM (top dose mostly 57.9 µM), inactives show at the top dose signal change, negative = less light | 410,000 tested, 1.2% active | human cells with a luciferase reporter of 2A StopGo recoding; control for the full effect not named in the record; active = well fitted falling curve with a large enough effect; inconclusive = small, poorly fitted or top-dose-only effect; inactive = no such curve, though single readings can be large or run the other way; tested in HEK293T cells; further: on the % scale 0 is the no-effect control and ±100 the full control effect; nearly all actives have a fitted effect of over 45% in size; luciferase light after 4 h
NS1 inh: inhibitors of influenza NS1 protein function; 270,000 tested, 0.4% active; AID 2326; S. cerevisiae slowed by influenza A NS1, growth recovery by OD600; Potency, µM (titrated, usually from 46.1 µM), for inactives: at the top dose activity, positive = more growth; further: actives are rising curves; nearly all actives have a fitted effect of over 50% in size
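A cell-based growth assay was used: compounds that relieve NS1-induced slow growth of budding yeast raise OD600. Assay medium was yeast nitrogen base with ammonium sulphate and -URA supplement, pH 6.0, with 2% galactose.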
Marburg entry inh: Marburg virus entry inhibition | AID 540276 | Potency, µM (doses to about 37.8 µM), for inactives: at the highest dose activity change, negative = inhibition, hits mostly inhibitors | Marburg virus pseudotyped entry inhibition, cell reporter; control for the full effect not named in the record; about a third of the inactives were read at about 46 µM | 300,000 tested, 1.8% active; active = well fitted inhibition curve with a large enough effect; inconclusive = small, poorly fitted or top-dose-only effect, or effect the other way; inactive = flat fitted curve, though single readings scatter; tested in HEK293 cells; about a fifth of its hits are not listed in these tables; further: on the % scale 0 is the no-effect control and ±100 the full control effect; luciferase read-out
Cruzain inh Det: inhibitors of Trypanosoma cruzi cruzain with detergent. 200,000 tested, 0.43% active. Potency, µM, inactives show max response, negative = inhibition, most hits filed as inhibitors. AID 1478. P25779. purified cruzain, Z-FR-AMC fluorescence, 0.01% Triton; active means well fitted curve in the direction sought with a large enough effect; inconclusive means small, poorly fitted or top-dose-only effect, or another doubt; inactive means no such curve, though single readings can be large; an effect the other way counts as inactive or inconclusive;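 further: plate controls were neutral wells for no effect and buffer without enzyme for full effect; nearly all actives have a fitted effect of over 40% in size; top concentration of the series not given in the record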
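Purified cruzain (1.5 nM final) was preincubated with compounds for 15 min at room temperature in 100 mM sodium acetate pH 5.5, 5 mM DTT, 0.01% Triton X-100. Reaction started with 2 uM Z-FR-AMC; AMC fluorescence change over 60 s gave activity.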
* marks the source's active call; other numbers are inactive results; ? = inconclusive; nt = not tested or not shown; & = joins results of further samples; [ ] = another dose, or the depositor's remark. Unless noted, the call rests on the fitted dose curve; in most records, active means well fitted rising curve with a large enough effect; inconclusive means small, poorly fitted or top-dose-only effect; inactive means no such curve, though single readings can be large or run the other way. Potency means the concentration at half of the fitted maximal effect.

SMILES	Cruzain noTriton	LASV entry inh	RE007 growth inh	SARS PLP yeast	StopGo reporter	NS1 inh	Marburg entry inh	Cruzain inh Det
COc1c(N2CCN(C(=S)NC3CC4CCC3C4)C(C)C2)c(F)cc2c(=O)c(C(=O)O)cn(C3CC3)c12 (centres undefined)	nt	nt	-6.4%	-1.1%	-25.1%	5.2%	nt	nt
Cc1nn(CC(=O)Nc2ccc3c(c2)nc(CCN2CCCCC2)n3C)c(=O)c2ccccc12	-5.3%	19.6%	6.3%	-6.5%	-22.9%	6.2%	?	-2.9%
Cn1cc(Cl)c(C(=O)Nc2nc3ccc(Cl)cc3s2)n1	-8.7%	?	-12.5%	4.3%	nt	-20.6%	0.9%	-5.2%
CCOc1ccc2c(c1)/C(=N/N1C(=O)c3ccccc3C1=O)C(=O)N2	nt	-0.7%	-11.3%	2.3%	-4.6%	nt	-10.8%[46.1 µM]	nt
Cc1ccc(C(C)C)c(OCCSc2nc3ccccc3n2CC(=O)O)c1	nt	nt	-9.0%	-0.2%	4.9%	1.7%	nt	nt
CC(CCc1ccccc1)NCc1ccncc1 (centres undefined)	-5.2%	?	-20.4%	2.0%	-19.1%	-9.8%	-2.5%	4.3%
Cc1ccccc1NS(=O)(=O)c1ccc2oc(=O)ccc2c1	nt	nt	9.1%	?	17.6%	-24.9%	nt	nt
COc1ccc2c(=O)c(N3C(=O)c4ccccc4C3=O)c(C)oc2c1	-11.5%	-12.5%	15.5%	21.1%	4.0%	-9.4%	25.4%	7.6%
CSc1nnc2c(n1)OC(C1CC=C(C)CC1)Nc1ccccc1-2 (centres undefined)	-12.6%	nt	nt	4.6%	nt	-5.5%	0.0%	-1.8%
COc1ccc(NC(=O)c2nc(-n3nc(C)cc3C)ccc2Cl)cc1Cl	?	?	-19.7%	10.6%	-13.7%	-3.6%	9.5%	-1.5%
Cc1ccccc1NC(=O)CN1CCN(C(=O)c2ccco2)CC1	nt	nt	7.6%	-1.3%	-8.8%	-5.8%	nt	nt
Cc1ccc(C)c(CSC2=NN3CCCC(=O)N=C3S2)c1	nt	1.4%[46.1 µM]	?	-6.4%	0.2%	-46.8%	8.0%[46.1 µM]	nt
Cc1cccc(C(=O)NC(C)C2CC3CCC2C3)c1 (centres undefined)	nt	8.9%	-16.4%	nt	-2.7%	nt	-2.3%[46.1 µM]	nt
Cc1ccc(CN2CC3CC(C2)c2cccc(=O)n2C3)cc1 (centres undefined)	13.7%	-13.0%	-12.5%	1.4%	-24.7%	3.8%	-16.4%	2.3%
Cc1ccc(NC(=S)N(CCCN2CCC(C)CC2)Cc2ccco2)cc1C	nt	?	-19.6%	-3.8%	-19.8%	nt	?	nt
O=C(COC(=O)c1cn(-c2ccccc2)nc1-c1ccccc1)c1cccc([N+](=O)[O-])c1	?	-1.4%	-11.2%	3.4%	-10.0%	4.8%	-21.3%	1.9%
O=C(COC(=O)c1ccc2c(c1)OCO2)Nc1ccccc1	nt	6.9%	23.1%	-0.5%	33.4%[activator]	-5.1%	12.8%[46.1 µM]	nt
O=C(COC(=O)c1n[nH]c(=O)c2ccccc12)c1ccc(Cl)cc1	-0.1%	-7.8%	3.2%	9.9%	-6.9%	1.9%	8.2%	0.5%
CC(OC(=O)COc1ccc(C#N)cc1)C(=O)Nc1ccc(Cl)cn1 (centres undefined)	nt	-0.4%	-20.0%	-2.9%	-10.6%	nt	1.2%[46.1 µM]	nt
Cn1nnnc1SCC(=O)N(C1CCCCC1)C1CCCCC1	12.9%	-9.3%	-4.8%	0.9%	-26.8%	-2.3%	-5.3%	-5.2%
O=C(NCCS(=O)(=O)NCc1ccccn1)c1ccccc1	nt	17.6%	9.3%	5.4%	-10.3%	nt	3.2%	nt
CCOc1ccccc1NC(=O)CSc1nc2ccccc2nc1N1CCOCC1	17.0%	?	-6.9%	-5.3%	?	-18.9%	?	-6.4%
CCC(=O)Nc1ccc(NC(=O)CSc2nnc(-c3ccco3)n2C)cc1	nt	nt	2.4%	5.0%	8.9%	-3.3%	-5.6%[46.1 µM]	nt
COc1ccc(OC)c(CNC(=O)CN(c2ccc(C)cc2)S(=O)(=O)N(C)C)c1	-4.6%	-6.1%[46.1 µM]	nt	nt	-16.7%	nt	?	-1.2%
Cc1ccc2c(C)nc(NC3=NCN(Cc4ccccc4)CN3)nc2c1	-7.9%	nt	nt	-4.0%	nt	-9.4%	2.9%	5.6%
CC1=NN(C(N)=S)C(=O)C1N=Nc1cccc(C)c1 (centres undefined)	nt	nt	-9.3%	1.1%	67.8%[activator]	-55.1%	nt	nt
Cn1c(=O)c2c(nc(Oc3cccc(O)c3)n2C)n(C)c1=O	nt	25.7%	-26.5%	-1.0%	-13.3%	3.4%	15.4%	nt
Cc1ccc(C2=NN(CC(=O)NCCc3ccc(Cl)cc3)C(=O)CC2)cc1	8.5%	8.2%[46.1 µM]	nt	nt	0.0%	nt	nt	1.6%
Cn1c(=O)c(C(=O)CCl)c(N)n(CC2CC2)c1=O	3.7%	3.5%	10.7%	-2.4%	?	19.5%	-0.7%	-2.1%
CCSc1nc(O)c(C2OC(=O)c3c2ccc(OC)c3OC)c(=O)n1-c1ccccc1 (centres undefined)	-9.4%	13.0%	-7.4%	6.2%	-6.9%	22.9%	-0.1%&-0.1%	3.3%
O=C(CSc1ccc(-c2ccncc2)nn1)N1CCCCC1	nt	-16.3%	-2.4%	1.4%	-12.0%	nt	-14.0%[46.1 µM]	nt
O=C(COC(=O)c1cc([N+](=O)[O-])ccc1N1CCOCC1)NC1CCS(=O)(=O)C1 (centres undefined)	nt	0.1%[46.1 µM]	-8.4%	6.6%	-21.2%	nt	0.9%	nt
CC(C)(C)c1ccc(C(=O)N2CCC(C(=O)NCC3CCCO3)CC2)cc1 (centres undefined)	?	17.5%	2.4%	6.4%	6.8%	0.8%	?	-0.2%
CCCCOC(=O)c1ccccc1C(=O)OCCCC	2.4%&-2.2%	nt	-10.9%	-1.9%	8.9%&-5.3%	nt	nt	-1.5%&-0.8%
Cc1cc(NC(=O)C(C)SCC(=O)N(C)Cc2c(F)cccc2Cl)no1 (centres undefined)	nt	?	3.2%	-5.8%	6.3%	nt	?	nt
Nc1nc(-c2ccccc2)cc(N2CCCCC2)n1	-13.7%	?	1.0%	1.7%	-3.9%	-13.3%	?	1.1%
O=C(Nc1ccc(C2=NCCN2)cc1)c1ccc(C(=O)Nc2ccc(C3=NCCN3)cc2)c([N+](=O)[O-])c1	nt	11.8%[46.1 µM]	?	-2.0%	-3.4%	-42.0%	?	nt
CCCn1c(SCC(=O)NC2CCCCC2)nnc1C1CC1	nt	9.2%	-3.2%	-4.7%	0.0%	8.6%	18.0%	nt
O=C(c1cnn(-c2ccc(F)cc2)c1-n1cccc1)N1CCN(c2ccc(Cl)cc2)CC1	-12.5%	2.0%[46.1 µM]	nt	nt	?	nt	nt	-4.7%
Cc1ccc(-n2c3c(cc(C(=O)O)c2=O)C(=O)CC(C)(C)C3)cc1	-4.4%	2.1%	18.9%	4.0%	16.4%	-19.0%	13.2%	7.6%
O=C(CNC(=S)NC(=O)c1cccc([N+](=O)[O-])c1)c1ccccc1	?	0.5%	2.8%	11.5%	-22.6%	11.8%	?	-0.4%
Cc1cc(C)c2sc(N3CCN(C(=O)c4ccc(N(C)C)cc4)CC3)nc2c1	-13.0%	3.8%[46.1 µM]	nt	nt	-10.2%	nt	nt	-5.9%
CCN(CC(=O)Nc1c(F)cccc1F)C(=O)c1ccc(C(F)(F)F)cc1	nt	nt	1.9%	3.6%	13.9%	-3.8%	nt	nt
C=CCn1c(C(C)NC(=O)CCC)nc2ccccc21 (centres undefined)	-14.0%	0.1%	4.5%	29.7%	nt	-3.9%	4.8%	-1.6%
COc1cccc(CN(c2ccc3c(c2)CCC3)S(=O)(=O)c2ccc(-n3cnnn3)c(OC)c2)c1	-28.0%	9.5%	47.3%	-2.7%	33.0%[activator]	29.6%	?	-2.7%
Cc1ccc2nc(N3CCN(C(=O)c4ccco4)CC3)c3nncn3c2c1	nt	26.6%[46.1 µM]	-1.0%	-4.8%	19.2%	5.1%	29.2%[46.1 µM]	nt
COc1ccc(N2CCN(c3oc(Cc4cccc5ccccc45)nc3C#N)CC2)cc1	15.8µM*	?	-7.9%	-5.4%	-13.1%	4.0%	?	2.6%
CCOc1ccc(Nc2nc(Cc3nnc(SCC(=O)O)o3)cs2)cc1	27.1%	-4.7%	-5.0%	4.9%	nt	4.7%	-1.4%	-3.5%

6 compounds from above, arranged by length of the SMILES, largest number first.
SMILES	Cruzain noTriton	LASV entry inh	RE007 growth inh	SARS PLP yeast	StopGo reporter	NS1 inh	Marburg entry inh	Cruzain inh Det
O=C(Nc1ccc(C2=NCCN2)cc1)c1ccc(C(=O)Nc2ccc(C3=NCCN3)cc2)c([N+](=O)[O-])c1	nt	11.8%[46.1 µM]	?	-2.0%	-3.4%	-42.0%	?	nt
COc1cccc(CN(c2ccc3c(c2)CCC3)S(=O)(=O)c2ccc(-n3cnnn3)c(OC)c2)c1	-28.0%	9.5%	47.3%	-2.7%	33.0%[activator]	29.6%	?	-2.7%
COc1ccc(N2CCN(c3oc(Cc4cccc5ccccc45)nc3C#N)CC2)cc1	15.8µM*	?	-7.9%	-5.4%	-13.1%	4.0%	?	2.6%
Cc1ccc(-n2c3c(cc(C(=O)O)c2=O)C(=O)CC(C)(C)C3)cc1	-4.4%	2.1%	18.9%	4.0%	16.4%	-19.0%	13.2%	7.6%
Cc1ccc2nc(N3CCN(C(=O)c4ccco4)CC3)c3nncn3c2c1	nt	26.6%[46.1 µM]	-1.0%	-4.8%	19.2%	5.1%	29.2%[46.1 µM]	nt
CCCn1c(SCC(=O)NC2CCCCC2)nnc1C1CC1	nt	9.2%	-3.2%	-4.7%	0.0%	8.6%	18.0%	nt
